# Screening results from PubChem BioAssay.
# RGS16-Gao HTS: modulators of RGS16 binding to Galphao, primary screen, biochemical, human proteins, multiplexed bead flow cytometry; Regulator of G-protein signaling 16 (Homo sapiens) + Guanine nucleotide-binding protein …; bead-based flow cytometry RGS16-Galphao binding, fluorescence; actives lie on both sides; binding response (% of control), % at 10 µM; hit rate 0.38% among 220,000;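 active = below 25% or above 175%, edge rows of some plates excepted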;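 also: Galphao activated by GDP with aluminum fluoride before binding; 100% = wells without compound and 0% = beads without RGS; some results beyond the cut were filed as inactive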
# Target sequence (O15492 whole entry, looked up): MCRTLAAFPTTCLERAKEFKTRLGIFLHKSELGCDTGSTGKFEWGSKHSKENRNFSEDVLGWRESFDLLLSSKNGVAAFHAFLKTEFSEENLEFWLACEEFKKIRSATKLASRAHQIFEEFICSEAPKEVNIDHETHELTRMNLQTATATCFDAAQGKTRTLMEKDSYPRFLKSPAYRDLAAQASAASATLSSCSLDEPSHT
# Target sequence (P09471 whole entry, looked up): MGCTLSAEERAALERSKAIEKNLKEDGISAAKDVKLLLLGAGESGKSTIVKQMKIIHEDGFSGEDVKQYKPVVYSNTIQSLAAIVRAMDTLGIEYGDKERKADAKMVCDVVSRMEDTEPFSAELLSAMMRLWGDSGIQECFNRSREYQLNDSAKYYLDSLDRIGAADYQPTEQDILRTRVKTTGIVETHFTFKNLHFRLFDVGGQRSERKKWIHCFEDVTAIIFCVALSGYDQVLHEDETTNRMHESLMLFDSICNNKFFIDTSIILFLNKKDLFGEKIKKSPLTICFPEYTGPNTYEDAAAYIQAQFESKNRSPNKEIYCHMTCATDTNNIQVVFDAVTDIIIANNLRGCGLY
# PKD1 kinase inh: inhibitors of human PKD1 kinase, biochemical, fluorescence polarization; inhibition, %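 (about 10 µM by stock and volumes)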; hit rate 0.056% among 200,000; Serine/threonine-protein kinase D1 (Homo sapiens), Q15139; PKD1 kinase fluorescence polarization assay;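 active = inhibition of 50% or more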;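 also: controls were vehicle for no effect and a reference inhibitor for full effect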
# HSV replic up: enhancers of HSV replication in host cells, fold increase, host cell viability | HSV replication augmentation in cells | AID 1956, 2009 | maximum fold increase | hit rate 0.005% among 220,000;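 active = peak rise of 1.5-fold or more in the series; tested in PC3 cells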;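 also: first round at 10 µM; read as green reporter fluorescence; hits show the peak of a series up to 25 µM; 1 = signal of infected wells without compound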
# INS promoter inh: inhibitors of insulin promoter-driven GFP, primary screen, imaging, TRM-6 cells (human fetal islet line), eGFP reporter, cell count; AID 1273, 2008; inhibition, % at 2 µM; reporter expression induced with tamoxifen; hit rate 0.9% among 130,000;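 active = inhibition above the mean plus 3 SD, with well images judged a real hit on visual review, cut at about 60% in these data, passing the limit was not always enough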
# GALR2 agonist: GALR2 receptor agonists, primary screen, cell-based; hit rate 0.48% among 140,000; GALR2-expressing cells, agonist activation read-out; activation, %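 (tested at 5 µM)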;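 active = above mean plus 3 SD of all compounds, about 5% in these data, not always enough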;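 also: 0% = vehicle buffer wells and 100% = reference agonist at full effect; tested in CHO reporter cells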
# Target sequence (O43603 whole entry, looked up): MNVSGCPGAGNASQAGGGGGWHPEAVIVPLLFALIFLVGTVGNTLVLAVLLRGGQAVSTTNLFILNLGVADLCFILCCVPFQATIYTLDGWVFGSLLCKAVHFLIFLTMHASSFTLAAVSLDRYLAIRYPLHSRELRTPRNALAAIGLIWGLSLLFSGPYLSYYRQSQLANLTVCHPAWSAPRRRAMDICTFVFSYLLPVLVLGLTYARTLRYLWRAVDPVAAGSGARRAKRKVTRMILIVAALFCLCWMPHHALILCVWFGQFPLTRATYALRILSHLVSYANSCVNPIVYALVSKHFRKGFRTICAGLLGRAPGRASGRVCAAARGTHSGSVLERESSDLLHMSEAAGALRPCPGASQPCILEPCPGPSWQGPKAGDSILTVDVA
# INS promoter inh cell count: also measured in INS promoter inh; calls as there; normalized cell count, %; measured here: cell count, toxicity; reference of the scale not given here;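 cells exposed to compound for 48 h; stained nuclei by imaging scaled within each plate; lower means fewer cells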
# HSV replic up primary fold: further read-out of HSV replic up, marked with its call; fold increase; compound at 10 µM; measured here: primary screen fold increase 10 uM; tested in PC3 cells;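 GFP signal in the first replicate; 1 = infected wells without compound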
# Active calls of the source: *; i = inactive; / = no result given.
# The opening 3 records, ahead of the listing:
no.	smiles	INS promoter inh cell count	INS promoter inh	GALR2 agonist	HSV replic up	PKD1 kinase inh	HSV replic up primary fold	RGS16-Gao HTS
1	O=C(NCc1cccnc1)c1ccc2c(=O)n(CCCN3CCCC3=O)c(=S)[nH]c2c1	114	0	0.0	i	-1	0.84	84
2	CCOCCCNC(=O)c1cc2c(-c3ccc(Cl)cc3)nn(C)c2s1	/	/	-1.1	i	-18	0.87	103
3	CCOCCCNC(=O)CCC(=O)NNc1nc2ccccc2c2nc(-c3ccccc3)nn12	/	/	0.2	i	0	0.89	106

# All compounds of this part, from the start:
no.	smiles	INS promoter inh cell count	INS promoter inh	GALR2 agonist	HSV replic up	PKD1 kinase inh	HSV replic up primary fold	RGS16-Gao HTS
1	O=C(NCc1cccnc1)c1ccc2c(=O)n(CCCN3CCCC3=O)c(=S)[nH]c2c1	114	0	0.0	i	-1	0.84	84
2	CCOCCCNC(=O)c1cc2c(-c3ccc(Cl)cc3)nn(C)c2s1	/	/	-1.1	i	-18	0.87	103
3	CCOCCCNC(=O)CCC(=O)NNc1nc2ccccc2c2nc(-c3ccccc3)nn12	/	/	0.2	i	0	0.89	106
4	Cc1ccc(NC(=S)NNC(=O)c2ccc(N3CCOCC3)c([N+](=O)[O-])c2)cc1Cl	118	24	-1.1	i	1	0.79	113
5	CC(=O)c1oc2ccccc2c1N	75	-30	-1.0	i	6	0.92	99
6	CCN1CCN(C(=S)NC(CC(=O)c2ccccc2)c2ccccc2)CC1 (centres undefined)	/	/	/	i	/	0.94	95
7	CC(Sc1ccc(Cl)cc1)C(=O)Nc1ccc2c(c1)OCO2 (centres undefined)	97	-69	-4.8	i	5	1	97
8	NC(=O)c1ccc(NC(=O)C2CC2)cc1	/	/	/	i	8	0.91	95
9	CCOC(=O)C1=C(C)N=c2s/c(=C\c3ccc(OC(C)=O)cc3)c(=O)n2C1/C=C/c1ccccc1 (centres undefined)	75	-239	-2.1	i	-11	1.1	100
10	COc1cc(/C=N/Nc2snc(SC)c2C#N)ccc1O	26	-2	0.6	i	-3	0.61	101
11	COCCCNC(=O)c1ccc2c(=O)n(CC3CCCO3)c(=S)[nH]c2c1 (centres undefined)	101	-23	-2.5	i	0	1.2	100
12	COc1ccc(NS(=O)(=O)c2ccc(/C=C/C(=O)O)cc2)cc1S(=O)(=O)N1CCOCC1	/	/	/	i	/	0.97	99
13	COc1cc(CN(C(=S)NCC(=O)N2CCCC2)C2CCCC2)cc(OC)c1OC	81	-4	/	i	-11	0.99	106
14	CN(C)S(=O)(=O)c1ccc(Cl)c(NC(=O)COC(=O)[C@@H]2CCCN2C(=O)c2cccs2)c1	120	33	/	i	-3	0.96	97
15	CCOC(=O)c1cc2cc(CC(=O)c3ccc(OCC)cc3O)ccc2o1	142	-41	-3.1	i	5	1.1	100
16	CNC(=O)CN(C#N)c1nc(N(C)C)nc(N(C)C)n1	/	/	-1.0	/	-9	/	/
17	O=C(COc1ccccc1[N+](=O)[O-])c1ccccc1	/	/	/	i	0	1	92
18	CC(=O)c1cnc2n(c1=O)CCS2	137	14	/	i	-4	0.9	96
19	CCc1ccc(NC(=O)C(=O)c2cn(CC(=O)N3CCCCC3)c3ccccc23)cc1	/	/	0.0	i	-4	1	102
20	Cc1cc2c(c(=O)n1C1CC1)C(c1cccc(Cl)c1)C(C#N)=C(N)O2 (centres undefined)	/	/	-2.7	i	-1	0.82	102
21	COC(=O)CSc1nnc(-c2cccnc2)n1-c1cc(OC)cc(OC)c1	/	/	-1.5	i	7	0.93	69
22	CC(=O)NS(=O)(=O)c1ccc(NC(=O)c2cc(-c3ccc(C)cc3)nc3ccccc23)cc1	/	/	-0.8	i	-6	1	117
23	O/N=C1/C2C3C(Br)C4C5CC(C1C53)C24 (centres undefined)	101	-64	-1.3	i	4	1	102
24	O=C(CSc1nccn1-c1ccc(Cl)cc1)Nc1ccc2c(c1)OCO2	189	14	-1.5	i	-7	0.97	100
25	O=C(NCCCO)c1nnc(Cc2c(F)cccc2Cl)o1	101	69	-0.8	i	-3	0.95	114

# Three compounds from above, arranged by their value in PKD1 kinase inh, largest number first.
no.	Compound	PKD1 kinase inh
25	O=C(NCCCO)c1nnc(Cc2c(F)cccc2Cl)o1	-3
18	CC(=O)c1cnc2n(c1=O)CCS2	-4
16	CNC(=O)CN(C#N)c1nc(N(C)C)nc(N(C)C)n1	-9

# The listing picks up, repeating the 4 entries before the break.
no.	smiles	INS promoter inh cell count	INS promoter inh	GALR2 agonist	HSV replic up	PKD1 kinase inh	HSV replic up primary fold	RGS16-Gao HTS
22	CC(=O)NS(=O)(=O)c1ccc(NC(=O)c2cc(-c3ccc(C)cc3)nc3ccccc23)cc1	/	/	-0.8	i	-6	1	117
23	O/N=C1/C2C3C(Br)C4C5CC(C1C53)C24 (centres undefined)	101	-64	-1.3	i	4	1	102
24	O=C(CSc1nccn1-c1ccc(Cl)cc1)Nc1ccc2c(c1)OCO2	189	14	-1.5	i	-7	0.97	100
25	O=C(NCCCO)c1nnc(Cc2c(F)cccc2Cl)o1	101	69	-0.8	i	-3	0.95	114
26	CCOC(=O)C1CCN(C(=O)CSc2nccc(C)n2)CC1	104	5	/	i	2	1.2	95
27	CC(=O)Nc1nonc1-c1nc2ccccc2n1Cc1ccccn1	110	43	-1.6	i	-4	0.96	105
28	Cc1ccc(NC(=O)c2sc(Cl)nc2C)c(C)c1	76	-33	-0.4	i	0	0.76	116
29	O=C(CCl)N1N=C(c2ccco2)CC1c1cccs1 (centres undefined)	/	/	-1.0	i	5	1.3	99
30	Cc1ccc2nc(SCC(=O)NCc3cccs3)[nH]c2c1	/	/	/	i	-1	0.96	102
31	Cc1ccc[n+](CC(=O)Nc2c(Cl)cc(Cl)cc2Cl)c1	98	43	/	i	-5	0.81	98
32	C=C(C)Cc1c(C)c(C#N)c2nc3ccccc3n2c1N1CCCCC1	113	-41	-0.1	i	-2	0.97	100
33	CC(C)NC(=O)c1ccccc1NC(=O)Cc1ccc(Br)cc1	/	/	/	i	8	1	101
34	CCOC(=O)N1CCN(S(=O)(=O)c2ccc(F)c(C(=O)Nc3cc(C)cc(C)c3)c2)CC1	149	21	-1.5	i	-4	0.75	114
35	O=c1c2ccccc2nc2n1C(CSc1ccc(F)cc1)CS2 (centres undefined)	121	2	/	i	-2	1.2	94
36	O=C1CC(N2CCC(c3nc4ccccc4o3)CC2)C(=O)N1c1ccc(Cl)c(C(F)(F)F)c1 (centres undefined)	157	24	-0.9	i	2	0.84	103
37	Clc1cc(Cl)cc(Nc2ncn[nH]2)c1	49	-10	-0.5	i	3	0.94	100
38	O=C(COC(=O)c1n[nH]c2ccccc12)NC(=O)NC1CCCCC1	/	/	-2.8	i	1	0.97	103
39	O=C(CCNC(=O)c1ccco1)Nc1ccc(Cl)cc1	173	-22	/	i	3	1.1	91
40	O=C(NCc1ccco1)c1ccc(Cn2c(=O)c3sccc3n(Cc3cccc(F)c3)c2=O)cc1	/	/	0.0	i	1	0.96	102
41	COc1ccc(C2CC(=O)c3cnc(N)nc3C2)c(OC)c1 (centres undefined)	115	9	-0.8	i	-2	0.82	104
42	N#CCSc1nc2ccccc2c(=O)n1CC1CCCC1	/	/	/	i	-12	0.96	101
43	COc1ccc(-c2oc3ccccc3c(=O)c2OC(C)=O)cc1	/	/	/	i	3	1.2	99
44	Cc1ccc(N(CC(=O)NC2CCCCC2)C(=O)Cn2nnc(-c3ccc(C)o3)n2)cc1	105	56	/	i	-4	0.88	103
45	CCC(=O)N(CCc1ccccc1)Cc1cc2cc3c(cc2[nH]c1=O)OCO3	94	17	-1.0	i	1	1	99
46	CCOC(=O)c1ccc(-n2c(=S)sc3c(=O)[nH]c(C)nc32)cc1	143	-24	-0.5	i	-4	0.96	96
47	CC1(C)CC(C(CCN(Cc2ccccc2)C(=O)c2ccco2)c2ccc(F)cc2)CCO1 (centres undefined)	/	/	-0.9	i	-2	0.9	104
48	Clc1ccccc1Nc1nc(-c2cccnc2)cs1	119	-358	/	i	-2	0.97	107
49	CN(C)S(=O)(=O)c1ccc(Cl)c(NC(=O)CN2CCC(Cc3ccccc3)CC2)c1	/	/	/	i	-11	0.96	103
50	CCC(=O)Nc1cccc(NC(=O)c2ccc(C)c([N+](=O)[O-])c2)c1	120	-31	-3.3	i	-1	0.96	101

# A draw from above in order of formula weight, rising:
no.	smiles	INS promoter inh cell count	INS promoter inh	GALR2 agonist	HSV replic up	PKD1 kinase inh	HSV replic up primary fold	RGS16-Gao HTS
37	Clc1cc(Cl)cc(Nc2ncn[nH]2)c1	49	-10	-0.5	i	3	0.94	100
43	COc1ccc(-c2oc3ccccc3c(=O)c2OC(C)=O)cc1	/	/	/	i	3	1.2	99
45	CCC(=O)N(CCc1ccccc1)Cc1cc2cc3c(cc2[nH]c1=O)OCO3	94	17	-1.0	i	1	1	99
34	CCOC(=O)N1CCN(S(=O)(=O)c2ccc(F)c(C(=O)Nc3cc(C)cc(C)c3)c2)CC1	149	21	-1.5	i	-4	0.75	114

# Further entries follow.
no.	smiles	INS promoter inh cell count	INS promoter inh	GALR2 agonist	HSV replic up	PKD1 kinase inh	HSV replic up primary fold	RGS16-Gao HTS
51	CCNC(=S)N(Cc1cc2cc(C)c(C)cc2[nH]c1=O)C1CCCC1	78	-18	/	i	-1	0.85	102
52	O=C(NN=c1c(=O)c2ccccc2c1=O)c1ccccc1	/	/	-2.0	i	9	0.83	103
53	NS(=O)(=O)c1ccc(Nc2ncccc2[N+](=O)[O-])cc1	125	-19	0.0	i	-7	1	103
54	COc1cc(/C=N/N(C)C)ccc1OC(=O)c1ccco1	92	-122	/	i	2	0.99	109
55	COc1ccc(OCC(=O)Nc2nccs2)cc1	/	/	/	i	-8	0.97	102
56	Cc1ccccc1-c1nc(Cc2ccccc2)no1	131	57	-1.9	i	-18	0.99	85
57	COc1ccc(C(=O)COC(=O)C2CCCN2C(=O)C23CC4CC(CC(C4)C2)C3)cc1 (centres undefined)	97	-22	-3.5	i	-6	0.92	93
58	N/C(=N\OC(=O)c1ccc2ccccc2c1)c1ccncc1	/	/	/	i	-3	1	110
59	CCc1nnc(NC(=O)c2ccc(-c3ccccc3F)o2)s1	123	6	/	i	-4	1.1	99
60	COc1ccc(-n2nc(C(=O)NCC(=O)N3CCN(C)CC3)c3ccccc3c2=O)cc1OC	115	-12	-0.5	i	-1	1	222
61	Cn1c(=O)cc(OCC(=O)NCCCN2CCN(c3ccccc3F)CC2)c2ccccc21	/	/	0.3	i	-9	0.86	105
62	CCc1ccccc1N(CC(=O)N1CCN(c2ccccc2F)CC1)S(C)(=O)=O	37	-7	-0.8	i	4	0.98	102
63	CCOC(=O)C1CCCN(C(=O)CN(c2ccc(OC)cc2)S(=O)(=O)c2c(C)noc2C)C1 (centres undefined)	/	/	-3.5	i	-4	0.99	103
64	O=C(CSc1ncnc2nc[nH]c12)N1CCN(c2ccccc2)CC1	/	/	-1.0	i	-8	0.76	99
65	CCCOn1c(OCC(C)C)nc2ccccc2c1=O	111	-7	-1.0	i	-9	0.87	101
66	CC1CCCCN1CCNC(=O)c1ccc2c(=O)n(CCc3ccccc3)c(=O)[nH]c2c1 (centres undefined)	128	-3	-1.5	/	-8	/	100
67	Cc1ccc(-c2nnc3c4ccccc4c(C)nn23)cc1S(=O)(=O)N1CCN(CCO)CC1	113	-33	1.0	i	0	0.79	102
68	C[N+]1(CC(=O)NNc2c3ccccc3nc3ccccc23)CCOCC1	/	/	/	i	-4	0.92	98
69	CNC(=O)c1ccc(NC(=O)/C=C/c2cccc(F)c2)cc1	76	11	/	i	-1	0.85	101
70	CN(C)/C(=N\O)c1c(Cl)cccc1Cl	/	/	/	i	/	1	98
71	COc1ccccc1OCCCOc1c(C)cc(C)cc1Br	87	-21	-0.9	i	-1	1	98
72	Cc1ccc(OCC(=O)O)c(-n2nc3ccccc3n2)c1	94	11	-1.2	i	16	0.81	136
